# miR-21 FLuc: raises the signal of a miR-21 reporter; HeLa miR-21 FLuc reporter, luciferase, 48 h; Potency, µM (doses to about 38.3 µM), without a hit: at the highest dose reporter change, positive = more light; 340,000 tested, under 10 active; active = well fitted rising curve with a large enough effect; inconclusive = small, poorly fitted or top-dose-only effect; inactive = no such curve, though single readings can be large or run the other way;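 note: % of control where 0% means no effect; miR-21 action dims this reporter so a rising signal means less miR-21 action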
#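 HeLa cells stably expressing CMV-driven firefly luciferase with a downstream miR-21 binding sequence, endogenously expressing miR-21, were treated with titrations (up to about 40uM final) for 48 hours at 37 degree Celsius. Luciferase luminescence was read after lysis.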
# GLA inh pH 4.5: inhibitors of human alpha-galactosidase A at pH 4.5; purified enzyme, 4-MU-alpha-Gal fluorescence, pH 4.5; activity change, negative = inhibition, % at 105 µM; 230,000 tested, under 10 active; AID 1467; inconclusive = small, poorly fitted or top-dose-only inhibition, or a rising curve; inactive = flat fitted curve, though single readings scatter; no compound was filed as active;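 note: 0% = full activity with enzyme and -100% = basal without enzyme; dose as in the result columns while the protocol names 77 µM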
# Target sequence (P06280 whole entry, looked up): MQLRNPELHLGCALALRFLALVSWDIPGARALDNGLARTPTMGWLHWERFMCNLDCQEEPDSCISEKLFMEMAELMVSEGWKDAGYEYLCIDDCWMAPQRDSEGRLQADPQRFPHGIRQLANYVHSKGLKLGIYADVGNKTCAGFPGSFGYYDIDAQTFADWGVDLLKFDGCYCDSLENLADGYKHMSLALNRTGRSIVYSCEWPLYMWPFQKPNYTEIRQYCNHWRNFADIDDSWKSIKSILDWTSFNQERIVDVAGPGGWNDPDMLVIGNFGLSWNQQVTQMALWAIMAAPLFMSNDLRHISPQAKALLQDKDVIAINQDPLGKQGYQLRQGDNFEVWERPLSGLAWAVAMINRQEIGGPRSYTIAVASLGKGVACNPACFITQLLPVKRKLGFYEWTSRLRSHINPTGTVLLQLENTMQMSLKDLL
# Rango complex inh: inhibitors of Rango-importin beta complex formation. Q14974. AID 540263. 0.031% of 340,000 active. Potency, µM (top dose mostly 92.2 µM), inactives show top-dose inhibition of complex formation. Rango CFP/YFP FRET sensor + importin beta, 45 min; active = rising FRET ratio curve, often small or poorly fitted; inconclusive = mostly compound fluorescence or quenching in the first reads; inactive = flat curves in all reads;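 note: potency is the fitted concentration of half-maximal effect; 0% = DMSO wells and 100% = buffer wells lacking importin beta; nearly all actives have a fitted effect of over 15% in size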
#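 FRET biosensor Rango (snurportin 1 IBB between N-terminal EYFP and C-terminal Cerulean), 50 nM in PBS/1 mM DTT/0.02% Tween-20/0.1% BSA, preincubated 5 min RT with compound; 0.125 microM importin beta added, 45 min RT, CFP/YFP FRET ratio read.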
# Rango release inh: inhibition of RanGTP-driven Rango-importin beta dissociation | Potency, µM (doses to about 46.1 µM), inactives show at the highest dose activity change, negative = inhibition | Biochemical FRET Rango-importin beta, RanGTP-induced dissociation | AID 540253 | 0.071% of 340,000 active; active means falling FRET ratio curve, often poorly fitted, with flat reads before Ran was added; inconclusive means other falling curves, or compound fluorescence or quenching; inactive means flat or rising ratio curve;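 note: potency is the fitted concentration of half-maximal effect; % of control where 0% means no effect; nearly all actives have a fitted effect of over 45% in size; -100% = wells without RanGTP and RCC1; the record marks most hits as doubtful in a second field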
#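 Two FRET readings bracket the reaction: one 5 min after compound meets Rango–importin beta, another 45 min after RanGTP-RCC1 (0.6 uM Ran, 0.2 uM RCC1, 2 mM GTP) is added. Only the second defines inhibition.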
# * = called active by the depositor; ? = inconclusive; nt = no result given; & = joins results of further samples. Some of the compounds tested; rates above refer to the full screens.
miR-21 FLuc | GLA inh pH 4.5 | Rango complex inh | Rango release inh | mol
0% | nt | 1.7% | 22% | CC(=O)c1ccc(NC(=O)C2CCCN(c3ncnc4c3nc3n4CCCCC3)C2)cc1 (centres undefined)
-8% | -24 | -0.6% | -6% | Cc1nc2ccccc2n1CCc1ccccc1
-5% | 3 | -1.5% | 4% | CCCn1nc(C(=O)NCc2ccccn2)c2ccccc2c1=O
2% | -7 | 8.9% | ? | COc1ccc(NC(=O)COC(=O)c2ccc(Cl)c(S(N)(=O)=O)c2)c([N+](=O)[O-])c1
27% | 10 | ? | 0% | Clc1ccc2[nH]c3c(N4CCC5(CC4)OCCO5)ncnc3c2c1
-11% | -1 | 1.4% | 8% | O=C1NC(=O)/C(=C/c2ccccn2)S1
-32% | -9 | -3.0% | -6% | CN1CCN(C(=S)SCc2nc(N)nc(Nc3ccc(F)cc3)n2)CC1
-3% | nt | ? | 6% | Cc1cccnc1N1C(=O)c2ccc(C(=O)O)cc2C1=O
-1% | -6 | -1.7% | -17% | COc1ccccc1C1CCN(Cc2cccc([N+](=O)[O-])c2)CC1
-33% | -6 | 0.1% | 2% | O=C(CSc1nc2ccccc2o1)Nc1ccc(N2CCOCC2)cc1
-1% | 8 | 2.2% | 7% | COCc1ccc(CN2CCCC(CO)(Cc3ccccc3C)C2)o1 (centres undefined)
nt | nt | -0.3% | -6% | O=[N+]([O-])c1ccc(COc2cccc(CN3CCOCC3)c2)cc1
4% | 2 | 0.8% | ? | Cc1cc(-c2ccccc2)nc2[n+]1CCN2C
1% | 4 | -3.9% | 25% | Cc1ccc(S(=O)(=O)CCC(=O)OCn2nnc3ccccc3c2=O)cc1
nt | nt | -1.8% | 18% | CCOc1ccc(NC(=O)CSc2nc(=O)n(CCN3CCOCC3)c3c2CCCC3)cc1
-5% | -1 | 1.9% | 0% | CC1=NN(c2ccccc2)C(=O)/C1=C\c1ccc(Br)s1
-3% | nt | 6.2% | 6% | COc1ccc(-c2nnc(NC(=O)CS(=O)(=O)c3ccc(Cl)cc3)o2)c(OC)c1
-2% | 8 | ? | -5% | COc1ccc2nc(SCC(=O)N3CC(=O)Nc4ccccc43)c(C#N)cc2c1
-1% | 2 | 0.0% | -7% | CCN(CC)C(=O)CSc1nc2ccccc2c(=O)n1OC
-2% | 2 | -2.8% | -9% | COCCn1c(SCC(=O)Nc2ccc(F)cc2)nc2c(oc3ccccc32)c1=O
-4% | 3 | 1.7% | -2% | Cc1c(Cl)cnc(NC(=O)COC(=O)c2nn(C)c(=O)c3ccccc23)c1Cl
-4% | -2 | ? | ? | O=c1cc(-c2ccccc2)c2ccc(O)c(CN3CCCCC3)c2o1
-4% | 3 | 0.1% | 2% | O=C(CSc1nnc(-c2cccs2)o1)N1CCCc2ccccc21
-1% | 6 | -2.0% | 1% | CCNS(=O)(=O)c1ccc(NC(=O)c2ccccc2SCCOC)cc1
? | -14 | -0.1% | 3% | CCOC(=O)c1ccc(NC(=O)c2cccc(S(=O)(=O)N3c4ccccc4CC3C)c2)s1 (centres undefined)
-26% | 0 | -3.3% | 5% | O=C(CSc1ccc(-c2ccccc2)nn1)N1CCOCC1
nt | nt | -1.9% | 6% | CC(=O)[C@H]1CC[C@H]2[C@@H]3CC=C4C[C@@H](O)CC[C@]4(C)[C@H]3CC[C@]12C
1% | ? | 0.6% | 5% | Cc1ccc(CNC(=O)CCS(=O)(=O)c2ccc(C)cc2)cc1
-4% | 6 | 3.7% | -10% | S=C1Nc2cc(Cl)ccc2Sc2ccccc21
2% | 9 | ? | 35% | COCCN(C(=S)Nc1ccccc1C)C(C)c1cccs1 (centres undefined)
-6% | nt | -4.3% | -3% | CC(CCc1ccccc1)NC(=O)C(=O)c1c[nH]c2ccccc12 (centres undefined)
6% | 8 | -3.5% | 15% | O=C(COC(=O)CNC(=O)c1ccc2c(c1)OCO2)Nc1ncc(Cl)cc1Cl
-8% | 4 | -4.4% | -13% | CCOC(=O)C1CCN(C(=O)CS(=O)Cc2nc(-c3ccc(C)cc3)oc2C)CC1 (centres undefined)
-10% | 1 | -2.0% | -11% | O=C(N1CCOCC1)N(CCN1CCOCC1)Cc1cccc(Cl)c1
2% | 2 | 0.3% | 20% | CCCN1C(=O)/C(=C/c2c(NCCCOCC)nc3c(C)cccn3c2=O)SC1=S
-19% | -3 | -2.0% | 12% | Cc1cccc(Nc2ncnc3nc[nH]c23)c1C
-4% | -4 | 3.3% | -22% | Cc1ccc(C(=O)N/C(=C/c2ccc(-c3cccc([N+](=O)[O-])c3)o2)C(=O)NC(C)C)cc1
20% | 2 | 5.8% | -1% | O=C(Cc1cccs1)Nc1cccc(-c2nc3cc4ccccc4cc3[nH]2)c1
0% | -6 | 0.5% | 11% | CCn1c(SCC(=O)N2c3ccccc3Sc3ccccc32)nc2c1c(=O)n(C)c(=O)n2C
nt | nt | -0.3% | 19% | COc1ccc(CNC(=S)Nc2cccc(Cl)c2)cc1
-6% | nt | -4.4% | 21% | CC(CNC(=O)CCCn1ncn2c(cc3occc32)c1=O)c1ccccc1 (centres undefined)
? | nt | 3.7% | 23% | CC(Sc1nnc2c(n1)[nH]c1ccccc12)C(=O)N(C)C1CCCCC1 (centres undefined)
-2% | nt | 0.3% | 0% | COCCN1CCN(C(=O)C2CCC(=O)N(CCc3ccc(Cl)cc3)C2)CC1 (centres undefined)
-1% | -15 | -0.8% | 21% | Cc1cc(CNC(=O)Cn2cc([N+](=O)[O-])cn2)c2ccccc2n1
2% | 2 | 0.8% | 6% | O=C(c1ccc(Cl)cc1)c1c[nH]c(C(=O)NNc2ccccc2)c1
4% | 3 | 0.4% | -16% | O=C(NCc1ccco1)c1ccc(S(=O)(=O)N2CCCCC2)cc1
11% | nt | 3.8% | -10% | Cc1cc(C)c(C)c(S(=O)(=O)N2CCC(C(=O)NCC(c3ccccc3)N(C)C)CC2)c1C (centres undefined)
0% | 10 | -2.8% | 0% | CC1(C)Oc2ccc(C(=O)N3CCOCC3)cc2N(CC(=O)N2CCOCC2)C1=O
-5% | 12 | -0.1% | -13% | CC1(C(=O)NC2CCCCC2)CCC(=O)N1Cc1cccs1 (centres undefined)
-3% | -8 | 0.3% | 8% | Cc1c(Br)c([N+](=O)[O-])nn1CC(=O)NCc1cccnc1
0% | -21 | -0.9% | 0% | CC(C)(C)c1nc2ccccc2c(=O)n1N1C(=O)c2ccccc2C1=O
-1% | 9 | 0.3% | 0% | O=C(NCCO)c1cccc(S(=O)(=O)N2CCCCC2)c1
-6% | ? | -5.0% | 6% | CCNC(=S)NNC(=O)c1ccoc1C
6% | 6&-21 | 3.3% | 5% | C=CCN1c2ccccc2[C@]23C[C@@H](C(=O)OC)N(C(=O)c4ccco4)C2=NC(C(=O)OC)=C(C(=O)OC)[C@H]13
0% | 5 | -2.9% | -12% | CCOC(=O)N1CCN(C(=O)C(CC)c2ccccc2)CC1 (centres undefined)
-43% | -6 | ? | 10% | O=C1NC(=O)/C(=C\c2ccc(Oc3cnccn3)cc2)S1
-12% | 2 | 1.6% | -9% | Brc1ccc(OCc2nnnn2-c2ccccc2)cc1
-7% | nt | -6.2% | -8% | COc1ccc(OC)c(NC(=O)CN2CCc3ccccc3C2)c1
10% | -13 | nt | nt | Cc1ccc(NC(=O)c2ccc(OCc3c(C)noc3C)cc2)cc1
-20% | -19 | 0.8% | 2% | O=C(Cn1nc2sc3ccccc3n2c(=O)c1=O)c1cccs1

# Additional results follow.
miR-21 FLuc | GLA inh pH 4.5 | Rango complex inh | Rango release inh | mol
-10% | 9 | -2.5% | 1% | COc1ccc(C(CNC(=O)c2cc(=O)[nH]c3ccccc23)N2CCCC2)cc1 (centres undefined)
3% | 6 | -0.5% | 1% | CCOC(=O)C1=C(C)N(CCO)C(=O)NC1c1cccc(O)c1 (centres undefined)
5% | -9 | nt | nt | O=C(c1cc2cc(Br)cc(Br)c2oc1=O)N1CCCc2ccccc21
4% | -3 | 0.2% | 2% | Cc1cc(N2CCN(c3ccccc3)CC2)n2ncnc2n1
-67% | -2 | -0.5% | -2% | O=C(N/N=C/c1ccccc1[N+](=O)[O-])c1cccs1
-18% | 6 | 0.1% | 3% | CCCCNC(=O)Cc1coc2ccc3ccccc3c12
14% | nt | 2.6% | 9% | CCn1c(NC(=O)/C=C/c2ccc(F)cc2)nc2ccccc21
-6% | -1 | -0.4% | -2% | O=c1nc2n(c3cccc(Cl)c13)CCCCC2
7% | nt | 1.4% | 9% | Cc1ccc(-c2nc(CS(=O)(=O)CC(=O)Nc3cc(F)ccc3F)c(C)o2)cc1
-4% | -22 | ? | ? | CCOC(=O)/C(=C/C1=CC(=C/N(C)C)/C(=O)O1)C(C)=O
0% | nt | -0.1% | -3% | CCCCCOc1ccc(C(=O)CCC(=O)N2CCCC2)cc1
0% | -2 | 0.0% | 6% | CCS(=O)(=O)c1ccc(O)c(NC(=O)CC2(CC(=O)O)CCCC2)c1
0% | 3 | -3.1% | 8% | O=C(CN1CCN(Cc2ccccc2Cl)C1=O)NCC1CCCO1 (centres undefined)
-31% | -6 | 0.6% | 7% | Cc1c(CCC(=O)O)c(=O)oc2cc3occ(C(C)(C)C)c3cc12
10% | -10 | -4.4% | 2% | COC(=O)c1cc(NC(=O)c2cccc(F)c2)cc(C(=O)OC)c1
5% | nt | -1.3% | 23% | CC(=O)N1c2ccc(S(=O)(=O)NCCC(=O)NC3CCCCCC3)cc2CC1C (centres undefined)
-8% | -14 | 0.5% | -12% | CC1CCC(C(C)C)C(OCC(O)CN2CCCC(C)C2)C1 (centres undefined)
-10% | -11 | 0.4% | -5% | CCOc1ccc(NC(=O)N(C2CCCCC2)C(C)c2cccnc2)cc1 (centres undefined)
-1% | nt | 3.7% | -9% | CCCCN(C)C(=O)Cn1ncc2c3ccccc3n(CCC)c2c1=O
6% | -1 | 0.8% | 1% | Cc1cc(NC(=O)CCc2ccc(S(=O)(=O)N3CCOCC3)cc2)n(-c2ccccc2)n1
26% | nt | -0.3% | 7% | Cc1cc(-c2ccc(S(=O)(=O)N(C)c3ccc(C)c(C)c3)s2)on1
-18% | 8 | ? | -7% | CC(C)NC[C@@H](O)c1ccc(O)c(O)c1
-20% | -11 | 4.2% | 1% | O=[N+]([O-])c1cccc(-c2nc3ccc([N+](=O)[O-])cc3[nH]2)c1
-15% | -8 | -2.0% | 3% | COc1cccc(OCCCOc2ccc([N+](=O)[O-])cc2Cl)c1
nt | nt | -0.6% | -6% | Cc1cccc(C(=O)NCC(=O)OCC(=O)NC2CCCCC2)c1
-3% | 1 | -0.4% | -9% | Cc1cc([N+](=O)[O-])nn1Cc1c(F)c(F)c(F)c(F)c1F
-7% | nt | -3.1% | 0% | CCOc1cccc(-c2c(C(=O)N/N=C/c3ccc(C)s3)nnn2-c2nonc2N)c1
-8% | nt | 1.3% | 5% | COCCNC(=O)CSc1ccc(-c2nc3ccccc3[nH]2)cn1
nt | nt | 2.0% | -4% | O=C(CN1CCCC1c1cccs1)Nc1cccc(S(=O)(=O)N2CCCC2)c1 (centres undefined)
2% | 3 | 4.0% | 11% | CC(=O)NC(CCS(C)(=O)=O)C(=O)Nc1ccccc1Cl (centres undefined)
-5% | 4 | 0.7% | 9% | Nn1c(SCC(=O)Nc2ccccc2F)nc2ccccc2c1=O
13% | nt | -0.4% | -8% | COc1ccc2c(c1)c(CC(=O)OC(C)C(=O)N(C)C)c(C)n2C(=O)c1ccc(Cl)cc1 (centres undefined)
0% | 4 | -2.4% | 1% | CCCN1C(=O)CC(c2ccco2)Sc2ccccc21 (centres undefined)

# A run of entries taken from the entries so far:
miR-21 FLuc | GLA inh pH 4.5 | Rango complex inh | Rango release inh | mol
-8% | nt | 1.3% | 5% | COCCNC(=O)CSc1ccc(-c2nc3ccccc3[nH]2)cn1
nt | nt | 2.0% | -4% | O=C(CN1CCCC1c1cccs1)Nc1cccc(S(=O)(=O)N2CCCC2)c1 (centres undefined)
2% | 3 | 4.0% | 11% | CC(=O)NC(CCS(C)(=O)=O)C(=O)Nc1ccccc1Cl (centres undefined)
-5% | 4 | 0.7% | 9% | Nn1c(SCC(=O)Nc2ccccc2F)nc2ccccc2c1=O
13% | nt | -0.4% | -8% | COc1ccc2c(c1)c(CC(=O)OC(C)C(=O)N(C)C)c(C)n2C(=O)c1ccc(Cl)cc1 (centres undefined)
0% | 4 | -2.4% | 1% | CCCN1C(=O)CC(c2ccco2)Sc2ccccc21 (centres undefined)
